Source: PubChem (National Center for Advancing Translational Sciences (NCATS))
Menin MLL FP FL – displaces fluorescein MLL peptide from human menin; Fluorescence polarization, fluorescein-MLL peptide displacement from menin; FP activity change, % at 61.4 µM; 290,000 tested, under 10 active; inconclusive = falling polarisation curve, or a change in total fluorescence; inactive = total fluorescence flat and polarisation flat or rising; no compound was filed as active; the % refers to the polarisation; negative = inhibition;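 further: % of control where 0% means no effect; inhibitors lower the polarisation; unlabelled MLL peptide was the positive control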
Sfp inh – blocks B. subtilis Sfp PPTase activity; Q9F4F7; Biochemical Sfp PPTase activity, qHTS; Potency, µM, without a hit: max response, negative = inhibition, actives largely listed as inhibitors; 310,000 tested, 3.5% active; active means well fitted inhibition curve with a large enough effect; inconclusive means small, poorly fitted or top-dose-only effect, or another doubt; inactive means no such curve, though single readings can be large or run the other way;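 further: the enzyme is Sfp with the accession as filed and its product quenches rhodamine fluorescence; potency means the concentration at half of the fitted maximal effect; 0% = enzyme reaction without inhibitor and -100% = no enzyme wells; top concentration of the series not given in the record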
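After 15 min at room temperature with compound, 15 nM Sfp received 5 uM rhodamine-CoA plus 12.5 uM BHQ-2-ybbR (50 mM Hepes pH 7.6, 10 mM MgCl2). Rate came from the fluorescence difference over 30 min, ex 525/em 598 nm.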
gsp antag – gsp mutant antagonism; 340,000 tested, 0.4% active; AID 624288; gsp-mutant cells, cAMP HTRF, 30 min; control for the full effect not named in the record; Potency, µM (doses to about 76.9 µM), for the others: at the top dose activity change, negative = inhibition, actives largely listed as inhibitors; active = falling curve of any shape with a large fitted effect; inconclusive = falling curve, mostly with a smaller effect; inactive = flat or rising curve; cell line not stated here;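 further: intracellular cAMP measured with PDE inhibitor Ro 20-1724 present during compound exposure; potency means the concentration at half of the fitted maximal effect; on the % scale 0 is the no-effect control and ±100 the full control effect; nearly all actives have a fitted effect of over 65% in size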
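G418-selected cells were plated in DMEM/10% FBS for 16-24 h at 37C, then treated with compounds plus the PDE inhibitor […] (300 uM solution added) for 30 min at 37C. Intracellular cAMP was measured by HTRF after 30 min lysis at room temperature.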
D2 potentiator – positive allosteric modulators of human D2 dopamine receptor. P14416. DiscoveRx D2 beta-arrestin cells, luminescence, 90 min; 100% = 57 uM dopamine signal. potentiation, % (no concentration beside the values). 360,000 tested, 0.23% active; active = potentiation of 50% or more; inconclusive = 30% to 50%; inactive = 30% or less;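 further: compound concentration not given in the record; tested on top of an EC20 dose of dopamine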
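PathHunter D2 cells, attached overnight at 37 deg C, received compound in DMSO plus dopamine at EC20 (50 nM final) for 90 min at 37 deg C. Beta-arrestin recruitment was read as luminescence after 1 h with detection reagent at ambient temperature.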
TRPV1 potentiator – potentiators of human vanilloid receptor 1 (TRPV1). Q8NER1. TRPV1-expressing cells, Fluo-8 calcium influx, capsaicin EC20 potentiation; host cell line not named in the record; control for the full effect not named in the record. potentiation, % at 8.33 µM. 320,000 tested, 0.02% active. AID 540277; active means potentiation above 80%; inconclusive means 30% to 80%; inactive means below 30%; further: 0% is about no effect
Target sequence (Q8NER1 whole entry, looked up): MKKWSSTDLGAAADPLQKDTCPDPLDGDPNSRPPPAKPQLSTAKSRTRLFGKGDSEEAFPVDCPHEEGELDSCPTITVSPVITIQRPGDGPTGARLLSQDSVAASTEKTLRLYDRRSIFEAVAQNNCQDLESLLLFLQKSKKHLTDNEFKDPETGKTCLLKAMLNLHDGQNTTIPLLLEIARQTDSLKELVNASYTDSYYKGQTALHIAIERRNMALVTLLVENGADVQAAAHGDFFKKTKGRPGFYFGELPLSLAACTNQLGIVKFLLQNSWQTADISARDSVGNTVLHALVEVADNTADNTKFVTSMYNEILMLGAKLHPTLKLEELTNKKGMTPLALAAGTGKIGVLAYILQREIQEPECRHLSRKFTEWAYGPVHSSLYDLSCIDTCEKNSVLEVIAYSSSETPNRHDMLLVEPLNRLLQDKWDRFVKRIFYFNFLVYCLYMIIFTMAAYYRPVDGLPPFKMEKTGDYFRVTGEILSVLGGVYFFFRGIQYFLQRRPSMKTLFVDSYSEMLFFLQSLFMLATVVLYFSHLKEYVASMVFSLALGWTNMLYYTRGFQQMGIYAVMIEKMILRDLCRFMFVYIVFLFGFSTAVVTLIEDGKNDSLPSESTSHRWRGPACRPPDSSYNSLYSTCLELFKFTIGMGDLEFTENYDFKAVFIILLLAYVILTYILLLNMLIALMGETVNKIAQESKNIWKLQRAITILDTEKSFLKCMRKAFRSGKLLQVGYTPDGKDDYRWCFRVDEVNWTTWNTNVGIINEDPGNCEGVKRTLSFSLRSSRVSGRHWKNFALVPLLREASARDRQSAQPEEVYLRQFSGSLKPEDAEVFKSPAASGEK
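TRPV1-expressing cells were cultured overnight at 35.5C and loaded with Fluo-8 calcium dye for 40 to 90 min at room temperature. After a 10 s baseline, compound was added and calcium influx was read kinetically for 3 min (ex 480/em 520 nm).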
ClpP mod – qHTS Assay for Activators of ClpP; 340,000 tested, 1.9% active; Potency, µM (series often up to 57.5 µM), inactives show at the highest dose activity change, negative = active; ATP-dependent Clp protease proteolytic subunit (Bacillus subtilis (strain 168)), P80244; purified B. subtilis ClpP, FRET peptide cleavage, 20 min; active = well fitted falling curve with a large enough effect; inconclusive = small, poorly fitted or top-dose-only effect; inactive = no such curve, though single readings can be large or run the other way; further: potency means the concentration at half of the fitted maximal effect; the source files actives as falling curves though it sought activators and does not explain the sign; nearly all actives have a fitted effect of over 65% in size; many hits overshoot -100%
Target sequence (P80244 whole entry, looked up): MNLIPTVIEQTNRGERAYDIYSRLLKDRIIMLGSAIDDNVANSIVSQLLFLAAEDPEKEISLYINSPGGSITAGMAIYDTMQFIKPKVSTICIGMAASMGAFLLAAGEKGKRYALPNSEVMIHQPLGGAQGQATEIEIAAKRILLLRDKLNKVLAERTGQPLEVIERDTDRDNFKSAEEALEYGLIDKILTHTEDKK
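Purified B. subtilis ClpP, 10 microg/mL final in Tris/HCl pH8 with KCl, BSA, glycerol and Tween-20, cleaved an Abz/nitrotyrosine-quenched decapeptide. Fluorescence (ex 320, em 430) was read at 0 and 20 min at room temperature. Delta was normalized to 5.8 microM ADEP and DMSO/no-enzyme controls.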
gsp agonist – activates gsp, the McCune-Albright syndrome mutation. Potency, µM (top dose mostly 76.9 µM), inactives show at the highest dose activation (cAMP increase), most hits filed as activators. 340,000 tested, 0.13% active. gsp mutant cells, cAMP HTRF, 30 min; control for the full effect not named in the record. AID 624287; active = well fitted activation curve with a large enough effect; inconclusive = small, poorly fitted or top-dose-only effect, or another doubt; inactive = no such curve, though single readings can be large or run the other way; cell line not stated here;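 further: phosphodiesterase inhibitor Ro 20-1724 added with compounds to block cAMP breakdown; potency means the concentration at half of the fitted maximal effect; nearly all actives have a fitted effect of over 60% in size; about a fifth of the inactives were tested at one dose only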
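Cells in DMEM/10% FBS with G418 were pretreated with compounds in DMSO plus […] (300 uM stock) for 30 min at 37C. cAMP was measured by HTRF (cAMP-d2 plus anti-cAMP antibody-K) after 30 min at room temperature.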
Numbers without * were called inactive; ? = inconclusive; · = no result given; & = joins results of further samples; [ ] = dose if it differs, or a comment.

#1 CCCCc1ccc(NC(=S)NCCN2CCOCC2)cc1
#2 S=C1SCCCN1Cc1ccc(Cl)cc1
#3 COCCn1c(SCC(=O)N2CCOCC2)nc2c(c1=O)SCC2
#4 CC1(c2ccccc2)CC(C)(C)N(C(=O)C2CCCO2)c2ccccc21 (stereo not given)
#5 O=c1[nH]c2ccccc2c(O)c1-[n+]1ccccc1
#6 COCCN(Cc1cc2ccc(C)c(C)c2nc1Cl)C(=O)N1CCOCC1
#7 CCC(C)(C)n1nnnc1C(c1ccc(OC)c(OC)c1)N1CCN(c2ccccc2)CC1 (stereo not given)
#8 FC(F)Oc1ccc(NC(=S)NN2CCOCC2)cc1

screen / no.	1	2	3	4	5	6	7	8
Menin MLL FP FL	3.9	·	·	3.3	2.4	0.2	1.6	-1.2
Sfp inh	6%	·	8%	-19%	-20%	11%	-19%	7%
gsp antag	7%	·	-7%	-8%	5%	2%	-10%	11%
D2 potentiator	1	-1	-16	2	-13	-3	5	-9
TRPV1 potentiator	-15	·	10	-1	6	-5	12	-1
ClpP mod	-0.3%	-1.3%	-2.1%	-1.5%	-2.1%	·	-1.1%	0.0%
gsp agonist	?	-72%[inhibitor]	2%[15.4 µM]	-16%	27%	-8%	-10%	8%

#9 Nc1nc(SCC(=O)N2CCCCC2)[nH]c(=O)c1NC(=O)c1cccs1
#10 Cc1c(Cl)c(C(=O)N2CCCCCC2)nn1C
#11 O=C(CCn1c(=O)oc2ccccc21)Nc1ccc(C(=O)O)cc1
#12 Cc1c(C(=O)N2CCN(C)CC2)oc2ccc(Br)cc12
#13 Cc1ccc2sc(C)[n+](CCO)c2c1
#14 Cc1c(NC(=S)NC(=O)c2ccccc2Cl)c(=O)n(-c2ccccc2)n1C
#15 Cc1noc(/C=C/N(C)C)c1S(=O)(=O)N1CCCC(C(=O)N2CCc3ccccc32)C1 (stereo not given)
#16 Cc1cc(N2CCN(C)CC2)nc2ccc(NC(=O)CCC(=O)NCCC(C)C)cc12

screen / no.	9	10	11	12	13	14	15	16
Menin MLL FP FL	-1.3	·	12	-5.8	0.6	-5.3	·	-2.1
Sfp inh	4%	5%	9%	3%	45µM*	9%	·	?
gsp antag	8%	-6%	10%	1%	7%	8%	1%	-9%
D2 potentiator	-7	-10	-4	-7	-13	-2	-5	-12
TRPV1 potentiator	4	-12	1	-1	-23	28	·	10
ClpP mod	·	0.6%	·	-3.6%	·	·	-8.1%	4.1%
gsp agonist	1%[15.4 µM]	0%	3%	17%	3%[15.4 µM]	-21%	-2%	-15%

#17 O=C(Nc1nccs1)OCc1ccccc1
#18 Cc1ccc(O)c(C=Nc2ccc3[nH]ncc3c2)c1
#19 Cc1cccc(NC(=O)Cn2cc(C(=O)C3CC3)c3ccccc32)c1
#20 C=CCOc1ccc(C2NC(=S)NC(C)=C2C(=O)c2ccccc2)cc1OC (stereo not given)
#21 C/C(=C\c1ccc(F)cc1)C(=O)c1c(C)cc(C)[nH]c1=O
#22 Cc1ccc(NC(=O)C(C)Oc2ccccc2)cc1S(=O)(=O)N1CCCCCC1 (stereo not given)
#23 O=C1NC2=C(CCc3ccccc32)C(c2ccc(Br)cc2)N1 (stereo not given)
#24 Cc1onc(-c2ccccc2)c1C(=O)Nc1nnc(C(C)(C)C)s1

screen / no.	17	18	19	20	21	22	23	24
Menin MLL FP FL	·	2.1	6.0	3.3	-1.1	·	-2.0	5.0
Sfp inh	·	0%	14%	-10%	11%	·	-22%	13%
gsp antag	15%	1%	·	-3%	6%	?	0%	3%
D2 potentiator	-4	-2	-15	3	-2	-4	?	2
TRPV1 potentiator	·	-7	8	-11	4	-2	1	?
ClpP mod	·	116%	·	0.2%	-1.9%	-7.2%	28µM*	·
gsp agonist	-5%[15.4 µM]	-44%[inhibitor]	-11%[15.4 µM]	-13%[15.4 µM]	?	-9%	-22%	6%

#25 Cc1ccc(-c2noc(CCC(N)=O)n2)cc1
#26 Cc1cc(Oc2ccc(N)cn2)ccc1Cl
#27 CC1CCN(c2ccc(S(=O)(=O)Nc3cc(C(=O)O)cc(C(=O)O)c3)cc2[N+](=O)[O-])CC1
#28 O=C(Nc1nccs1)c1cc(S(=O)(=O)N2CCOCC2)ccc1Cl
#29 Nc1nc(SCC(=O)Nc2ccc(Oc3ccccc3)cc2)n[nH]1
#30 O=C(Nc1ccccc1C(=O)O)c1cncc(Br)c1
#31 Cc1cccc(C)c1Nc1nnc(SCc2nc3ccccc3c(=O)[nH]2)s1
#32 COC(=O)[C@@H]1C[C@@]2(O)[C@H](O)[C@H](O)[C@H](O)C[C@H]2N1CC1CC1

screen / no.	25	26	27	28	29	30	31	32
Menin MLL FP FL	3.3	0.7	-2.6	3.0	-7.6	5.0	·	1.4&-1.3
Sfp inh	3%	9%	2%	7%	-16%	-11%	0%	10%&17%
gsp antag	7%	2%	1%	4%	-1%	?	16%	-5%
D2 potentiator	-2	-2	-8	-4	14	-8	8	-8
TRPV1 potentiator	4	13	-12	5	11	-1	11	-19
ClpP mod	-1.1%	0.4%	·	-1.3%	-1.0%	-1.2%	-7.4%	-5.1%
gsp agonist	19%	10%[15.4 µM]	9%[15.4 µM]	10%	-1%	?	-26%	·

#33 Cc1c(Nc2ncccc2C(=O)O)cccc1C(F)(F)F
#34 Cc1ncoc1C(=O)N1CCCC(C(=O)c2cccc(OC(C)C)c2)C1 (stereo not given)
#35 CSc1ccccc1NC(=S)Nc1ccc(S(N)(=O)=O)cc1
#36 CCOc1cc(C(=O)OCC(=O)c2c(N)n(C)c(=O)n(C)c2=O)cc(OCC)c1OCC
#37 C=CCN(c1ccccc1)S(=O)(=O)c1cccc(C(=O)NC2CCN(Cc3ccccc3)CC2)c1
#38 O=C(Cc1ccsc1)N1CCN(S(=O)(=O)c2ccccc2F)CC1
#39 Cc1ccc(-n2c(SCC(N)=O)nnc2-c2ccc(S(=O)(=O)N3CCCCC3)cc2)c(C)c1
#40 O=C(CN1CCC(NC(=O)c2ccc(F)cc2)CC1)NCc1ccccc1F

screen / no.	33	34	35	36	37	38	39	40
Menin MLL FP FL	1.3	-3.6	-4.3	-1.0	·	·	-0.5	0.0
Sfp inh	10%&17%	-28%	0%	-4%	·	·	4%	10%
gsp antag	2%	-5%	3%	-5%	-1%	8%	-1%	-5%
D2 potentiator	5	-4	-5	1	-32	-7	-3	-5
TRPV1 potentiator	-4	27	-2	-15	-16	-8	0	1
ClpP mod	3.6%	·	·	-5.3%	0.5%	-1.8%	25µM*	2.8%
gsp agonist	·	24%	0%	12%	22%	22%	-91%[inhibitor]	-35%[inhibitor]

#41 Cc1cc(CN(C)C(=O)CC2C(=O)NCCN2Cc2ccc(F)c(F)c2)on1 (stereo not given)
#42 Nc1ccc(C(=O)N/N=C\c2ccc(OC(=O)c3ccccc3Cl)cc2)cc1
#43 Cc1ccc2nc(SCC(=O)Nc3cc(C)on3)nc(=O)n2c1
#44 O=C(NCCOc1ccccc1-c1ccccc1)c1ccco1
#45 C=CCNC(=S)NNC(=O)CC12CC3CC(CC(C3)C1)C2
#46 CC1CCC(NS(=O)(=O)c2ccc(N3CCCC3=O)cc2)CC1 (stereo not given)
#47 O=C(CSc1ccc(Cl)cc1)Nc1ccccc1N1CCN(C(=O)c2ccccc2)CC1
#48 COc1ccc(CCN(C)C(=O)c2ccc3c(=O)n4c(nc3c2)CCCCC4)cc1OC

screen / no.	41	42	43	44	45	46	47	48
Menin MLL FP FL	1.4	1.6	·	-1.3	0.6	-2.1	1.9	·
Sfp inh	6%	8%	·	10%	20%	10%	0%	·
gsp antag	4%	5%	5%	-1%	6%	-1%	-26%	5%
D2 potentiator	-1	-24	0	-6	-6	-4	1	-4
TRPV1 potentiator	2	-3	-8	-12	-56	-5	0	·
ClpP mod	·	-3.8%	·	·	·	-1.3%	1.2%	-0.2%
gsp agonist	-1%	?	56%[15.4 µM]	0%[15.4 µM]	23%[15.4 µM]	-62%[inhibitor]	-53%[inhibitor]	-75%[inhibitor]

3 structures out of the list, arranged by length of the SMILES, low to high:
#45 C=CCNC(=S)NNC(=O)CC12CC3CC(CC(C3)C1)C2
#41 Cc1cc(CN(C)C(=O)CC2C(=O)NCCN2Cc2ccc(F)c(F)c2)on1 (stereo not given)
#47 O=C(CSc1ccc(Cl)cc1)Nc1ccccc1N1CCN(C(=O)c2ccccc2)CC1

screen / no.	45	41	47
Menin MLL FP FL	0.6	1.4	1.9
Sfp inh	20%	6%	0%
gsp antag	6%	4%	-26%
D2 potentiator	-6	-1	1
TRPV1 potentiator	-56	2	0
ClpP mod	·	·	1.2%
gsp agonist	23%[15.4 µM]	-1%	-53%[inhibitor]

Only TRPV1 potentiator and ClpP mod, for some of the entries so far:
nr	molecule	TRPV1 potentiator	ClpP mod
42	Nc1ccc(C(=O)N/N=C\c2ccc(OC(=O)c3ccccc3Cl)cc2)cc1	-3	-3.8%
43	Cc1ccc2nc(SCC(=O)Nc3cc(C)on3)nc(=O)n2c1	-8	·
44	O=C(NCCOc1ccccc1-c1ccccc1)c1ccco1	-12	·
45	C=CCNC(=S)NNC(=O)CC12CC3CC(CC(C3)C1)C2	-56	·
46	CC1CCC(NS(=O)(=O)c2ccc(N3CCCC3=O)cc2)CC1 (stereo not given)	-5	-1.3%

Remaining list, next part:
#49 Cc1cc(C)c(C(=O)CC2(O)C(=O)Nc3ccccc32)cc1C (stereo not given)
#50 CC(=O)C1=C(O)C(=O)N(Cc2cccnc2)C1c1ccc(O)cc1 (stereo not given)
#51 O=C(Nc1ccc(Br)c2cccnc12)c1ccc(Cn2cc([N+](=O)[O-])cn2)o1
#52 Nc1nn(-c2ccccc2)c(N)c1N=Nc1ccccc1F
#53 CC1CCCCN1C(=O)CSc1nc2ccsc2c(=O)n1Cc1ccccn1 (stereo not given)

screen / no.	49	50	51	52	53
Menin MLL FP FL	3.3	-6.0	-1.2	6.7	-0.6
Sfp inh	-11%	11%	?	-8%	2%
gsp antag	5%	-7%	-9%	4%	-15%
D2 potentiator	21	-1	-2	-7	-15
TRPV1 potentiator	-13	5	-2	0	-10
ClpP mod	3.1%	·	0.5%	0.6%	-0.6%
gsp agonist	4%	-10%[15.4 µM]	?	6%[15.4 µM]	-1%
